HIV Env fusion: inhibitors of HIV-1 Env-driven cell-cell fusion, primary screen, HeLa-JRFL effector, CEM21 target cells, luciferase. inhibition, % at 12.3 µM. 1.1% of 360,000 active. AID 651610, 2012;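 active = mean replicate inhibition score of at least 50 and every replicate individually at or above 50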;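 also: 0% = plate neutral controls and 100% = maraviroc near 300 nM; one replicate is shown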
PABP FP inh: PABP poly(A) RNA binding inhibitors, primary screen, biochemical, fluorescence polarization, uHTS. inhibition, % at 35 µM. Polyadenylate-binding protein 1 (Homo sapiens), P11940. AID 2014, 2009. 1% of 290,000 active;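 active = 50% or more with normal probe brightness, or confirmed in later tests; about a fifth of its hits are not listed in these tables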;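 also: calls also rest on retests at 20 µM and on dose response follow-up; controls were probe without protein and protein plus probe with vehicle; some compounds called inactive have numbers as strong as hits; many hits fall short of the cut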
Target sequence (P11940 whole entry, looked up): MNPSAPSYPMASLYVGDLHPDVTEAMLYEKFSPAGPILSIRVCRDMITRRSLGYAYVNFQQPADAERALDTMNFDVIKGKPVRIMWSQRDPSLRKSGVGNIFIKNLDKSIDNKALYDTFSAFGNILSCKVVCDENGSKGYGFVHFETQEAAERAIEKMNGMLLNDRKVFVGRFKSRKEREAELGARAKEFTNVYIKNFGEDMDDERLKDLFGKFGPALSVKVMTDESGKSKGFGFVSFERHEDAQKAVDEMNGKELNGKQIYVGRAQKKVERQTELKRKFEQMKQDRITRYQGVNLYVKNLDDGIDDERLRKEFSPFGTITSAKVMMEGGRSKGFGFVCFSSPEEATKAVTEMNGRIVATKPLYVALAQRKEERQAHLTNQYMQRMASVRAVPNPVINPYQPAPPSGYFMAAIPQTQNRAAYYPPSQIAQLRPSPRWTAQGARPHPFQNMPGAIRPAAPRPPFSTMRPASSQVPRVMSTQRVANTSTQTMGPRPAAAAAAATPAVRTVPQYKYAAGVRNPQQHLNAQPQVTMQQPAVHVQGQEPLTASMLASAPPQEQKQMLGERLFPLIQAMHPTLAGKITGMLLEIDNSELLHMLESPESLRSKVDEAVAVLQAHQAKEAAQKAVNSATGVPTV
CSC inhib: cancer stem cell viability inhibitors, primary screen, luminescence. cancer stem cell-like cells viability. inhibition, % at 7.5 µM. 1.1% of 300,000 active;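 active = mean at 75% or more and at least half the replicates too; tested in HMLE shEcad cells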;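 also: 0% = median of negative and 100% = median of positive control wells; the first replicate is given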
Rce1 inh: yeast Rce1p protease inhibitors, primary screen, biochemical, fluorescence, cell-free homogeneous; yeast membranes, quenched prenylated peptide cleavage fluorescence; calls only; 0.27% of 290,000 active;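 active = fall in fluorescence gain of 50% or more versus controls, with final raw signal at or below 3038400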;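 also: plate controls were neutral control wells for no effect and wells lacking membranes for full effect; tested at 10 µM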
Target sequence (Q03530 whole entry, looked up): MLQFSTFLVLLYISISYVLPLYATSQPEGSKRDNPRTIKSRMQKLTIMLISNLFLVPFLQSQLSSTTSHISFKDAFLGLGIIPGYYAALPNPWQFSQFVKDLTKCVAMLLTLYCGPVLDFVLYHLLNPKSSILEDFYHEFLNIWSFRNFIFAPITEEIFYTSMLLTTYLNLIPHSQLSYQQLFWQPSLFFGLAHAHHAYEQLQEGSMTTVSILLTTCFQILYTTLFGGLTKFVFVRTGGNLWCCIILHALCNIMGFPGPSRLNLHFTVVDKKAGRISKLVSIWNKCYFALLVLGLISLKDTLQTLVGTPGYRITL
eIF4H inh: human eIF4H binding inhibitors, primary screen, translation initiation inhibitor project, biochemical, uHTS, fluorescence polarization; AID 2012, 2009; inhibition, % at 35 µM; Eukaryotic translation initiation factor 4H (Homo sapiens), Q15056; eIF4H fluorescence polarization binding assay; 0.94% of 290,000 active;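 active = 50% or more with normal probe brightness, or confirmed in later tests; about a fifth of its hits are not listed in these tables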;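 also: calls also rest on retests at 20 µM and on dose response follow-up; 0% = protein and probe with vehicle and 100% = probe without protein; strong numbers were not always called active; many hits fall short of the cut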
UUG fidelity: modulators of yeast start codon fidelity, primary screen, whole organism, S. cerevisiae, single point, plate reader. S. cerevisiae UUG-firefly luciferase reporter, luminescence/redox ratio. activity score, % at 18.7 µM. 0.13% of 350,000 active;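 active = replicate mean at a twofold rise or more, about +100% in these data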;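 also: firefly luciferase made from a UUG start codon reports start codon fidelity; reporter light over untreated wells divided by growth signal over untreated wells; some hits fall short of that in this replicate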
MT1-MMP act inh: blockers of MT1-MMP proenzyme processing, primary screen, HT1080 RFP-PRO-GFP cells, GFP/RFP fluorescence; GFP/RFP ratio change, % at 20 µM; 0.061% of 360,000 active; GFP/RFP ratio fluorescence, overnight; percent of plate control window, DMSO zero;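 active = GFP/RFP ratio change of at least 30% with cell ATP level not reduced by more than half and red fluorescence within 50% of control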; also: strong numbers were not always called active
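Assay system: HT1080 RFP-PRO-GFP cells. Benchmarks: DMSO vehicle wells and RFP-L50D-GFP reporter cell wells. Times: overnight cell settling, then overnight compound exposure, 37 °C, 5% CO2. Compound: 20 µM single dose, 1% DMSO. Read-out basis: GFP/RFP fluorescence ratio.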
eIF4H inh retest: also measured in eIF4H inh; calls as there; inhibition, %; compound at 20 µM; confirmation average;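 mean of two retest wells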
PABP FP inh retest: second read-out of PABP FP inh, no call of its own (marks repeat the call); inhibition, %; compound at 20 µM; confirmation repeats;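 mean of two retest wells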
MT1-MMP act inh RFP: also measured in MT1-MMP act inh; calls as there; RFP signal change, %; measured here: RFP expression control read;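 0 = vehicle wells; hits needed this value within 50% of zero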
* = called active by the depositor.

Start of the listing, in advance (2 entries):
What do the screens show for `COc1cc(OC)c(/C=N/NC(=O)Cn2nc([N+](=O)[O-])cc2C)c(OC)c1`?
HIV Env fusion: 7; PABP FP inh: -5; CSC inhib: -5; Rce1 inh: inactive; eIF4H inh: -6; UUG fidelity: -10; MT1-MMP act inh: 3; MT1-MMP act inh RFP: 2

What do the screens show for `O=C(/C=C/c1ccco1)Nc1ccc(Oc2ccccc2)cc1`?
PABP FP inh: 6; CSC inhib: -17; Rce1 inh: inactive; eIF4H inh: 2; UUG fidelity: -15; MT1-MMP act inh: -11; MT1-MMP act inh RFP: -24

The listing (from the top)
What do the screens show for `COc1cc(OC)c(/C=N/NC(=O)Cn2nc([N+](=O)[O-])cc2C)c(OC)c1`?
HIV Env fusion: 7; PABP FP inh: -5; CSC inhib: -5; Rce1 inh: inactive; eIF4H inh: -6; UUG fidelity: -10; MT1-MMP act inh: 3; MT1-MMP act inh RFP: 2

What do the screens show for `O=C(/C=C/c1ccco1)Nc1ccc(Oc2ccccc2)cc1`?
PABP FP inh: 6; CSC inhib: -17; Rce1 inh: inactive; eIF4H inh: 2; UUG fidelity: -15; MT1-MMP act inh: -11; MT1-MMP act inh RFP: -24

How did O=C(NCC(=O)N1CCN(c2ccccc2O)CC1)C1CCCCC1 do in these assays?
HIV Env fusion: 6; CSC inhib: 1; Rce1 inh: inactive; MT1-MMP act inh: 0; MT1-MMP act inh RFP: -7

What do the screens show for `C=CCn1c(N)c(S(=O)(=O)c2cccs2)c2nc3ccccc3nc21`?
PABP FP inh: -6; CSC inhib: 2; Rce1 inh: inactive; eIF4H inh: 10; UUG fidelity: -8; MT1-MMP act inh: -3; MT1-MMP act inh RFP: 3

How did Cc1ccc(C2C(C#N)=C(N)Oc3c2oc(CO)cc3=O)o1 (stereo not given) do in these assays?
HIV Env fusion: -63; PABP FP inh: 56; CSC inhib: -7; Rce1 inh: inactive; eIF4H inh: 45*; UUG fidelity: 1; MT1-MMP act inh: -2; eIF4H inh retest: 69*; PABP FP inh retest: 40; MT1-MMP act inh RFP: 3

Results for CCc1noc2c1/C(=N\O)CC(c1ccccc1)C2 (stereo not given) ?
PABP FP inh: -6; CSC inhib: 4; Rce1 inh: inactive; eIF4H inh: 5; UUG fidelity: -9; MT1-MMP act inh: -3; MT1-MMP act inh RFP: -2

Results for Cc1ccc(S(=O)(=O)N2CCOCC2)cc1NC(=O)CNCC1CCCCC1 ?
HIV Env fusion: 3; PABP FP inh: 34; CSC inhib: -10; Rce1 inh: inactive; eIF4H inh: 14; MT1-MMP act inh: -3; MT1-MMP act inh RFP: -3

Results for COc1ccc(C=NC(CO)C(O)c2ccc([N+](=O)[O-])cc2)cc1 (stereo not given) ?
PABP FP inh: -8; CSC inhib: -16; Rce1 inh: inactive; eIF4H inh: -14; UUG fidelity: -1; MT1-MMP act inh: 6; MT1-MMP act inh RFP: 1

What do the screens show for `O=C(c1ccc(Cl)c([N+](=O)[O-])c1)N(Cc1ccccc1)C1CCS(=O)(=O)C1` (stereo not given)?
HIV Env fusion: 23; PABP FP inh: -14; CSC inhib: -13; Rce1 inh: inactive; eIF4H inh: -3; UUG fidelity: -2; MT1-MMP act inh: -2; MT1-MMP act inh RFP: 4

How did NC(=O)C(=O)NN=C1C2CC3CC(C2)CC1C3 do in these assays?
HIV Env fusion: -4; PABP FP inh: -4; CSC inhib: -1; Rce1 inh: inactive; eIF4H inh: 4; MT1-MMP act inh: -2; MT1-MMP act inh RFP: 4

The last two compounds of the section above open the next one:
What do the screens show for `O=C(c1ccc(Cl)c([N+](=O)[O-])c1)N(Cc1ccccc1)C1CCS(=O)(=O)C1` (stereo not given)?
HIV Env fusion: 23; PABP FP inh: -14; CSC inhib: -13; Rce1 inh: inactive; eIF4H inh: -3; UUG fidelity: -2; MT1-MMP act inh: -2; MT1-MMP act inh RFP: 4

How did NC(=O)C(=O)NN=C1C2CC3CC(C2)CC1C3 do in these assays?
HIV Env fusion: -4; PABP FP inh: -4; CSC inhib: -1; Rce1 inh: inactive; eIF4H inh: 4; MT1-MMP act inh: -2; MT1-MMP act inh RFP: 4

What do the screens show for `COc1ccccc1CN1CC(C(=O)N(CCO)Cc2cccs2)CCC1=O` (stereo not given)?
HIV Env fusion: -7; PABP FP inh: -2; CSC inhib: -6; Rce1 inh: inactive; eIF4H inh: -12; UUG fidelity: 3; MT1-MMP act inh: 4; MT1-MMP act inh RFP: 3

How did c1ccc(CSCc2nc3ccccc3[nH]2)cc1 do in these assays?
HIV Env fusion: -36; PABP FP inh: -10; CSC inhib: 7; Rce1 inh: inactive; eIF4H inh: 1; UUG fidelity: -24; MT1-MMP act inh: 5; MT1-MMP act inh RFP: 7

What do the screens show for `O=C(CCCc1ccccc1)Nc1cccnc1Cl`?
HIV Env fusion: 7; PABP FP inh: 3; CSC inhib: -7; Rce1 inh: inactive; eIF4H inh: -7; UUG fidelity: -23; MT1-MMP act inh: -3; MT1-MMP act inh RFP: 2

Results for COc1cccc(-n2nnnc2SCC(=O)NCCc2ccccc2)c1 ?
PABP FP inh: -5; CSC inhib: 2; Rce1 inh: inactive; eIF4H inh: -5; UUG fidelity: -3; MT1-MMP act inh: -3; MT1-MMP act inh RFP: -5

Results for COc1ccc(-c2sc3ccccc3c2-c2ccc(O)cc2)cc1 ?
HIV Env fusion: 21; CSC inhib: 107*; UUG fidelity: -24; MT1-MMP act inh: 0; MT1-MMP act inh RFP: -6

How did O=C(c1nc2ccc(Cl)cn2c1CN1CCC[C@H]1CO)N1CCc2ccccc2C1 do in these assays?
HIV Env fusion: -20; UUG fidelity: 1; MT1-MMP act inh: -14; MT1-MMP act inh RFP: 0

Results for CCc1c(C#N)c(SCCC(=O)Nc2cccc(OC)c2)nc2c1C(=O)CC(C)(C)C2 ?
PABP FP inh: -11; CSC inhib: 25; Rce1 inh: inactive; eIF4H inh: -7; UUG fidelity: -15; MT1-MMP act inh: -1; MT1-MMP act inh RFP: -4

What do the screens show for `COc1ccc(CNc2ccccc2SC)cc1OC`?
PABP FP inh: 12; CSC inhib: 8; Rce1 inh: inactive; eIF4H inh: -7; MT1-MMP act inh: 2; MT1-MMP act inh RFP: -13

Results for COc1cc(NC(=O)c2ccccc2-n2cnnn2)cc(OC)c1 ?
HIV Env fusion: -3; CSC inhib: -5; Rce1 inh: inactive; UUG fidelity: 6; MT1-MMP act inh: -4; MT1-MMP act inh RFP: -1

Results for CCN(CC)/C(N)=N/c1nc(C)cc(C)n1 ?
HIV Env fusion: 3; PABP FP inh: -11; CSC inhib: -5; Rce1 inh: inactive; eIF4H inh: 3; MT1-MMP act inh: -1; MT1-MMP act inh RFP: 4

What do the screens show for `Cc1cc(C)cc(C(=O)NCCN2CCOCC2)c1`?
HIV Env fusion: -16; PABP FP inh: 0; CSC inhib: -10; Rce1 inh: inactive; eIF4H inh: -5; UUG fidelity: -11; MT1-MMP act inh: 4; MT1-MMP act inh RFP: 3

Results for CC(C)C[C@H](NC(=O)OC(C)(C)C)C(=O)N1CCC(C(=O)N[C@@H](Cc2c[nH]c3ccccc23)C(=O)O)CC1 ?
HIV Env fusion: 10; PABP FP inh: 7; CSC inhib: -9; Rce1 inh: inactive; eIF4H inh: 11; UUG fidelity: 4; MT1-MMP act inh: -2; MT1-MMP act inh RFP: 1

What do the screens show for `Cc1c(C)n(Cc2ccc(Cl)cc2)c2ccc(C(=O)NCCN3CCOCC3)cc12`?
HIV Env fusion: 11; PABP FP inh: 8; CSC inhib: 34; Rce1 inh: inactive; eIF4H inh: -15; UUG fidelity: -2; MT1-MMP act inh: 3; MT1-MMP act inh RFP: -1

Results for Cc1ccc(NC(=O)CSc2ccc3nnc(-c4cccnc4)n3n2)cc1 ?
HIV Env fusion: -9; PABP FP inh: 5; CSC inhib: -1; Rce1 inh: inactive; eIF4H inh: -5; UUG fidelity: 1; MT1-MMP act inh: 6; MT1-MMP act inh RFP: 5

What do the screens show for `CCCOc1ccc(C2c3c(oc4cc(C)c(C)cc4c3=O)C(=O)N2CCCN(C)C)cc1` (stereo not given)?
HIV Env fusion: -9; PABP FP inh: 6; CSC inhib: -12; Rce1 inh: inactive; eIF4H inh: 2; UUG fidelity: -17; MT1-MMP act inh: 5; MT1-MMP act inh RFP: 8

What do the screens show for `CCN1CCN(Cc2ccc(NC(=O)c3ccc(C)c(NC(=O)c4nccnc4N)c3)cc2C(F)(F)F)CC1`?
HIV Env fusion: 37; PABP FP inh: 0; CSC inhib: 39; Rce1 inh: inactive; eIF4H inh: -5; UUG fidelity: 1; MT1-MMP act inh: -7; MT1-MMP act inh RFP: -6

How did Cc1ccccc1NC(=O)COc1ccc(Br)cc1CNCCCO do in these assays?
HIV Env fusion: -8; PABP FP inh: -1; CSC inhib: 6; Rce1 inh: inactive; eIF4H inh: -2; MT1-MMP act inh: -1; MT1-MMP act inh RFP: 0

Results for CC(C)C[C@H](NS(=O)(=O)c1ccc(Br)cc1)C(=O)O ?
HIV Env fusion: -9; PABP FP inh: -1; CSC inhib: 8; Rce1 inh: inactive; eIF4H inh: -6; UUG fidelity: -15; MT1-MMP act inh: -4; MT1-MMP act inh RFP: 1

Results for COc1ccc(CCNC(=O)c2cc3c(F)cccc3s2)cc1OC ?
HIV Env fusion: 4; PABP FP inh: 9; CSC inhib: -2; Rce1 inh: inactive; eIF4H inh: -3; UUG fidelity: 12; MT1-MMP act inh: 3; MT1-MMP act inh RFP: -4

Results for COc1cc([N+](=O)[O-])ccc1NC(=O)Nn1cnnc1 ?
HIV Env fusion: -4; PABP FP inh: 1; CSC inhib: -3; Rce1 inh: inactive; eIF4H inh: -13; UUG fidelity: -35; MT1-MMP act inh: -1; MT1-MMP act inh RFP: 1

How did CSc1nnnn1-c1ccc(C(=O)OCC(=O)N2CCOCC2)cc1 do in these assays?
HIV Env fusion: -17; PABP FP inh: 1; CSC inhib: -8; eIF4H inh: 0; UUG fidelity: -23; MT1-MMP act inh: -3; MT1-MMP act inh RFP: -2

Results for COc1ccc(CNC(=O)[C@H](C)N2C(=O)N3CCc4c([nH]c5ccccc45)[C@@]3(C)C2=O)cc1OC ?
PABP FP inh: -6; CSC inhib: -9; Rce1 inh: inactive; eIF4H inh: -2; UUG fidelity: -6; MT1-MMP act inh: -2; MT1-MMP act inh RFP: -32

What do the screens show for `Cc1cc(=S)c2ccccc2[nH]1`?
HIV Env fusion: -5; PABP FP inh: 60; CSC inhib: -14; Rce1 inh: inactive; eIF4H inh: 41; MT1-MMP act inh: -1; eIF4H inh retest: 1; PABP FP inh retest: 6; MT1-MMP act inh RFP: 4

What do the screens show for `COc1ccc(CCNC(=O)Cn2cnc3c(cnn3C(C)(C)C)c2=O)cc1OC`?
PABP FP inh: 4; CSC inhib: -3; Rce1 inh: inactive; eIF4H inh: -1; UUG fidelity: -11; MT1-MMP act inh: 4; MT1-MMP act inh RFP: 0

Results for COC(=O)Cc1nnc(NC(=O)C(C)C)s1 ?
HIV Env fusion: -12; PABP FP inh: 5; CSC inhib: 6; Rce1 inh: inactive; eIF4H inh: -8; UUG fidelity: -16; MT1-MMP act inh: 0; MT1-MMP act inh RFP: 2

What do the screens show for `O=C(CN1CCOCC1)N/N=C/c1cc2ccccc2nc1Cl`?
PABP FP inh: -3; CSC inhib: -10; Rce1 inh: inactive; eIF4H inh: -8; MT1-MMP act inh: 5; MT1-MMP act inh RFP: 7

How did CCOc1c(OC)cccc1C(=O)NCC1(c2ccccc2)CCCC1 do in these assays?
HIV Env fusion: 8; PABP FP inh: 5; CSC inhib: 35; Rce1 inh: inactive; eIF4H inh: -6; UUG fidelity: -1; MT1-MMP act inh: 0; MT1-MMP act inh RFP: -8

Screens: PubChem BioAssay, several laboratories

The list is partial. The share of hits here may be higher or lower than overall.
